RecA intein inh – blocks M. tuberculosis RecA intein splicing; P9WHJ3; cell-free RecA intein splicing, fluorescence; inhibition, %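 (about 9 µM by stock and volumes)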; 290,000 compounds, 0.75% hits; AID 2221; in the data active = inhibition above about 30%; inconclusive = no clear call, values can overlap the other calls;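 note: 0% = vehicle wells and 100% = reference inhibitor control wells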
Target sequence (P9WHJ3 whole entry, looked up): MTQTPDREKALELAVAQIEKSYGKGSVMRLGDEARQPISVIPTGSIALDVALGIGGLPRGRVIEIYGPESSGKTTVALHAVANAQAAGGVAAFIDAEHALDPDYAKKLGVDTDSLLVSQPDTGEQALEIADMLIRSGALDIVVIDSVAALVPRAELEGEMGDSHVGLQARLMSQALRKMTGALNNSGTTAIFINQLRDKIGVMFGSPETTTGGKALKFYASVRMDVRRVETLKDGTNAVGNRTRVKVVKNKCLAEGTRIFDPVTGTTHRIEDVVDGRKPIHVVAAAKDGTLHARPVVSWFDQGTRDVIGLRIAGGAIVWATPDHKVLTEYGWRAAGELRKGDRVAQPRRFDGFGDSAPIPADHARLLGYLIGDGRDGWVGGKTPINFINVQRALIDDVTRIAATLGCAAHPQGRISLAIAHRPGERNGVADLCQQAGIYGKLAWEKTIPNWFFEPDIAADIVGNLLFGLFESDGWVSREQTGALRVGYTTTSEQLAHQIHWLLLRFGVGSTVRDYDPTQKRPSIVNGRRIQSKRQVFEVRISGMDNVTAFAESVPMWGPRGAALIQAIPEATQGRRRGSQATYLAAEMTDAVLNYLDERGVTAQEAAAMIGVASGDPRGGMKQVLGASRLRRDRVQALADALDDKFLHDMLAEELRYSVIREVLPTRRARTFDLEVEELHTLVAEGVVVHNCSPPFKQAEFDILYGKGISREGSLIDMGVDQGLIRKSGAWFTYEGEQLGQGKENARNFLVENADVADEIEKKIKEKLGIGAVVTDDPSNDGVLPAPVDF
YopH PTP inh – blocks Yersinia enterocolitica YopH tyrosine phosphatase; inhibition, %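 (about 10 µM by stock and volumes)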; fluorescence Ex485/Em525; 140,000 compounds, 0.16% hits;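 active = inhibition of 50% or more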;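 note: controls were vehicle for no effect and minimum signal wells for full effect; inactives centre near -20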
Arbovirus inh – blocks arbovirus infection; inhibition, % at 10 µM; 200,000 compounds, 0.37% hits; arbovirus infection cell-based antiviral screen; AID 1251;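 active = inhibition from about 30%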;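 note: bluetongue infection of BSR cells; cell survival read as ATP light after 72 h; 0% = infected wells without compound and 100% = uninfected wells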
Mtb growth – M. tuberculosis H37Rv growth inhibitors, H37Rv strain (AID 1626). M. tuberculosis H37Rv growth inhibition; higher % means a stronger effect. one-dose inhibition, % at 10 µM; IC50 in µM for titrated hits. 220,000 compounds, 0.95% hits;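 active = confirmed in a dose series; inconclusive = inhibition above 80% but not taken into the dose series; inactive = below 80% or under 30% at every dose of the series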;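 note: bacteria incubated seven days before Alamar blue readout; 0% = bacteria only wells and 100% = bacteria with antibiotic wells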
Mtb bLac sens – beta-lactam sensitization of Mtb H37Rv. M. tuberculosis H37Rv growth with meropenem, percent inhibition; hits of this screen are not shown here. inhibition, % at 25 µM. 330,000 compounds, 0.27% hits. AID 434955;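 active = about 74% or more and at least 40 points above the plate without the antibiotic, then above 30% in a dose series; inconclusive = first-round hits that could not be retested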;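 note: growth measured after seven days incubation then overnight dye step; 0% = bacteria only wells and 100% = bacteria with antibiotic; twin plates without the antibiotic show which effects depend on it; some results filed as inactive read as strong as hits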
Arbovirus inh repeat – also measured in Arbovirus inh; calls as there; inhibition, %; measured here: 10K subset replicate screen; many hits read low in the repeat;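 first of two repeat runs on a subset; 0% = infected and 100% = uninfected wells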
The depositor's hits bear a star; ? = inconclusive; . = not tested or not shown; & = joins results of further samples. Some of the compounds tested; the hit share may differ from the screen's.

SMILES	RecA intein inh	YopH PTP inh	Arbovirus inh	Mtb growth	Mtb bLac sens	others
O=C(Oc1cccnc1)c1ccc([N+](=O)[O-])cc1Cl	.	.	7	0%	-5
COCC(C)OC(=O)c1c(N)n(Cc2ccco2)c2nc3ccccc3nc12 (stereo not given)	-85	-46	-8	6%	0
Cc1sc2nc(CN3CCCC3)nc(Cl)c2c1C	5.0	-13	0	2%	-7
CCOC(=O)C(Cc1ccc(O)cc1)NC(=O)CNC(=O)C1CCCN1C(=O)OC(C)(C)C (stereo not given)	-3.0	.	3	3%	-6
C=CCn1c(=O)/c(=C2/Sc3ccccc3N2CC)s/c1=C1/C(=O)NN=C1C	-4.0	.	15	-8%	-8
COc1ccc(CN2CCCCCC2)cc1OC	0.9	.	.	.	-10
Cc1cccc(N(C)S(=O)(=O)c2ccc3[nH]c(=O)c(=O)[nH]c3c2)c1	0.9	0	0	-7%	-6
COc1cccc(Oc2coc3cc(OC(=O)N4CCOCC4)ccc3c2=O)c1	0.2	.	1	-2%	8
COc1cc(NS(=O)(=O)c2ccc(NC(=O)C34CC5CC(CC(C5)C3)C4)cc2)ncn1	3.1	-20	-6	-6%	13	Arbovirus inh repeat=-3
OCCN1CCN(C2Cc3cc(Cl)ccc3Sc3ccc(Cl)cc32)CC1 (stereo not given) (tested in a mixture with another compound)	12	-5	-38	.	96
O=C(CSc1nc(-c2ccccc2)c(-c2ccccc2)o1)NCCCO	-0.5	.	.	.	0
CCCN1CNC(=S)N(c2cc(C)ccc2C)C1	.	4	4	-6%	2
Cc1cc2occ(CC(=O)N(CC(C)C)c3c(N)n(Cc4ccccc4)c(=O)[nH]c3=O)c2cc1C	0.4	.	.	.	1
CCc1nnc(NS(=O)(=O)c2ccc(NCc3cc(Cl)cc(Cl)c3O)cc2)s1	12	.	.	.	-8
CC(C)C(=O)NC(=S)Nc1ccc(S(=O)(=O)NC2CCCCC2)cc1	2.5	.	.	.	3

The last 4 compounds of the part above are carried over, then new ones follow.
SMILES	RecA intein inh	YopH PTP inh	Arbovirus inh	Mtb growth	Mtb bLac sens	others
CCCN1CNC(=S)N(c2cc(C)ccc2C)C1	.	4	4	-6%	2
Cc1cc2occ(CC(=O)N(CC(C)C)c3c(N)n(Cc4ccccc4)c(=O)[nH]c3=O)c2cc1C	0.4	.	.	.	1
CCc1nnc(NS(=O)(=O)c2ccc(NCc3cc(Cl)cc(Cl)c3O)cc2)s1	12	.	.	.	-8
CC(C)C(=O)NC(=S)Nc1ccc(S(=O)(=O)NC2CCCCC2)cc1	2.5	.	.	.	3
COC(=O)c1cccc(Cn2nc(C)c([N+](=O)[O-])c2C)c1	3.1	.	0	7%	-4
CC(=O)c1cn(CCCOc2ccccc2)c2ccccc12	5.5	.	-5	-5%	-1
CCOc1cccc(NC(=O)c2cccc(F)c2)c1	0.7	.	-1	-4%	-7
COC(=O)c1sc(NC(=O)c2ccc([N+](=O)[O-])o2)c(C#N)c1C	-3.3	.	.	52%	99
C[C@]12C=CC(=O)C=C1CC[C@@H]1C2=CC[C@]2(C)[C@@H](C(=O)CN3CCN(c4cc(N5CCCC5)nc(N5CCCC5)n4)CC3)CC[C@@H]12	24	.	.	?	-3
CCOC(=O)c1sc(N(Cc2ccccc2)C(=O)COC(=O)c2ccccc2O)nc1C	-2.0	-20	-27	6%	8
Oc1c(Cl)cc(Cl)cc1CNc1ccc(Br)cn1	-0.3	-8	11	8%	-5
CCOC(=O)c1sc(=S)n(-c2cccc(C(F)(F)F)c2)c1SC	-1.2	-40	16	-20%	-5
CCOC(=O)N1CCN(C(=O)c2c[nH]c3ccc(S(=O)(=O)N(C)c4cccc(C)c4)cc3c2=O)CC1	-0.8	.	.	.	1
C/C(=N\N1CCN(C2c3ccccc3-c3ccccc32)CC1)c1ccco1	-0.1	-22	5	2%	1
CCOc1ccc2nc(N/C(N)=N/C(=S)Nc3ccc(C)c(C)c3)nc(C)c2c1	-1.4	-17	-8	?	66
CC(C)OCCCNC(=O)CN1C(=O)COc2ccc(S(=O)(=O)N3CCCCCC3)cc21	-1.3	.	.	.	-4
CC(C)CCSc1nc2c(c(=O)[nH]c(=O)n2C)n1CCc1ccccc1	0.2	32	-1	2%	2
Fc1cnc(N2CCc3ccccc32)nc1N1CCc2ccccc21	-1.5	-11	2	-1%	-17
Cc1ccccc1C(=O)NCCCNC(=O)c1ccccn1	0.4	.	.	.	-4
CCCN(c1ccccc1C(=O)O)S(=O)(=O)c1ccc2c(c1)n(C)c(=O)n2C	0.0	.	.	.	-8
CC1CCCCC1NC(=S)NC(=O)c1ccccc1Br (stereo not given)	6.0	-18	10	7%	4
CC(C)OP(=O)(c1ccccc1)c1ccccc1	-0.9	-33	14	2%	1
Cc1ccccc1NC(=O)C1CCN(S(=O)(=O)c2ccc3c(c2)NC(=O)C(C)S3)CC1 (stereo not given)	0.3	.	.	.	3
CCOC(=O)C1=C(C)NC(SCc2cc(=O)[nH][nH]2)=C(C#N)C1c1cccs1 (stereo not given)	70*	-30	-2	-2%	3
CCOC(=O)C1=C(Nc2ccccc2)OCC1=O	-10	7	-5	-13%	-23
O=C(Cc1cccs1)Nc1nnc(SCc2ccc(F)cc2)s1	0.6	-15	-4	.	1
Cc1ccc(CNC(=O)Cn2nnc3ccccc3c2=O)cc1	6.6	.	14	1%	-11
Cc1ccc(-c2nn(-c3ccccc3)cc2C(=O)OCC(=O)Nc2ncc(Cl)cc2Cl)cc1	2.3	-20	-4	-5%	26
CCCNC(=O)CCc1c(C)nc2c(c(C)nn2-c2ccccc2)c1C	-0.8	.	.	.	7
C=CCc1cccc(C=Nc2ccc(Br)cc2)c1O	-1.5	.	-1	-5%	-3
COc1ccc(/C=N/NC(=O)c2ccc(CSc3nc(C)cc(C)n3)cc2)cc1O	-4.0	10	3	4%	-3
CC(C)N1C(=O)/C(=C/c2nc3ccccc3c(=O)n2-c2ccccc2)c2ccccc21	13	-39	-24	19%	23
C=CCOc1ccc(CNC(C)(C)CO)cc1OCC	-1.1	-21	-1	2%	-12
CCOC(=O)N1CCN(C(=O)C2CCN(S(=O)(=O)c3ccc(Cl)cc3)CC2)CC1	-1.8	-2	5	-4%	-13
COc1ccccc1CNC(=O)CCCNC(=O)Cn1cnc2sc(C)c(C)c2c1=O	-0.5	.	.	.	-8
COc1cccc(NC(=O)c2ccc(-c3ccc([N+](=O)[O-])cc3)o2)c1	3.8	.	-5	90%	0
CC(NS(=O)(=O)c1ccccc1)C(=O)NC1CCCC1 (stereo not given)	1.0	.	.	.	-12
CCOC(=O)C1CCCN(c2c(Nc3cc(C)cc(C)c3)c(=O)c2=O)C1 (stereo not given)	0.9	-34	0	-2%	-4
COc1ccc(S(=O)(=O)NNC(=O)C23CC4CC(CC(C4)C2)C3)cc1	-0.8	.	.	.	-9
COc1c(F)c(F)c(C(=O)Nc2ccc(-c3nc4ccccc4[nH]3)cc2)c(F)c1F	-11	.	-11	5%	-5
Cc1ccccc1-c1ccc(=O)n(CC(=O)Nc2ccc(S(=O)(=O)N(C)C)cc2)n1	14	.	17	7%	19
NC(=O)N\N=C/C=C/C=C/c1ccc(F)cc1	2.5	.	.	5%	-10
Cc1ccc(CN(c2ccc(C(=O)NCc3ccc4c(c3)OCO4)cc2)S(C)(=O)=O)cc1	0.3	-8	-10	-2%	-2
CC1CN=C(Nc2ccc(N(C)C)cc2)S1 (stereo not given)	-1.6	-39	5	6%	8
COc1ccc(NC(=O)c2cc([N+](=O)[O-])ccc2N2CCN(C)CC2)cc1	1.8	.	-2	-4%	-2
CN1CCN(C(=S)c2cn(Cc3cccc(F)c3)c3ccccc23)CC1	-3.6	.	4	3%	0
CC1=C(C(=O)Nc2ccccc2F)C(c2cccs2)NC(=S)N1 (stereo not given)	1.5	.	15	1%	4
Cc1cc(NC(=O)C2COc3ccccc3O2)no1 (stereo not given)	-6.4	-19	1	-7%	-4
CCOc1ccccc1CN1CCN(Cc2ccc3cccc(OC)c3n2)CC1CCO (stereo not given)	2.1	.	.	.	-2

Arranged by count of non-hydrogen atoms (low to high): 12 of the compounds above
SMILES	RecA intein inh	YopH PTP inh	Arbovirus inh	Mtb growth	Mtb bLac sens	others
CC1CN=C(Nc2ccc(N(C)C)cc2)S1 (stereo not given)	-1.6	-39	5	6%	8
NC(=O)N\N=C/C=C/C=C/c1ccc(F)cc1	2.5	.	.	5%	-10
Cc1cc(NC(=O)C2COc3ccccc3O2)no1 (stereo not given)	-6.4	-19	1	-7%	-4
CC(NS(=O)(=O)c1ccccc1)C(=O)NC1CCCC1 (stereo not given)	1.0	.	.	.	-12
CC1=C(C(=O)Nc2ccccc2F)C(c2cccs2)NC(=S)N1 (stereo not given)	1.5	.	15	1%	4
COc1ccc(S(=O)(=O)NNC(=O)C23CC4CC(CC(C4)C2)C3)cc1	-0.8	.	.	.	-9
CN1CCN(C(=S)c2cn(Cc3cccc(F)c3)c3ccccc23)CC1	-3.6	.	4	3%	0
COc1ccc(NC(=O)c2cc([N+](=O)[O-])ccc2N2CCN(C)CC2)cc1	1.8	.	-2	-4%	-2
CCOC(=O)N1CCN(C(=O)C2CCN(S(=O)(=O)c3ccc(Cl)cc3)CC2)CC1	-1.8	-2	5	-4%	-13
Cc1ccccc1-c1ccc(=O)n(CC(=O)Nc2ccc(S(=O)(=O)N(C)C)cc2)n1	14	.	17	7%	19
COc1ccccc1CNC(=O)CCCNC(=O)Cn1cnc2sc(C)c(C)c2c1=O	-0.5	.	.	.	-8
Cc1ccc(CN(c2ccc(C(=O)NCc3ccc4c(c3)OCO4)cc2)S(C)(=O)=O)cc1	0.3	-8	-10	-2%	-2

Next records.
SMILES	RecA intein inh	YopH PTP inh	Arbovirus inh	Mtb growth	Mtb bLac sens	others
Cc1ccccc1Nc1nc(N)nc(COc2ccc(C#N)cc2)n1	1.8	.	-3	-9%	7
Cc1cccc(C(=O)NCC(=O)N2CCN(S(=O)(=O)c3ccccc3)CC2)c1	-0.2	.	.	.	-5
CN1CCN(c2ncccc2S(=O)(=O)N2CCCCC2)CC1	-2.8	-17	6	-9%	4
NS(=O)(=O)c1cc2c(cc1Cl)NCNS2(=O)=O	-1.0	-29	-3	-5%	-1
COc1ccc(OC)c(NC(=O)c2cnn(-c3ccccc3Cl)c2NC(=O)c2ccco2)c1	0.1	-22	-2	14%	0
Cc1cc(-c2ccccc2)nc2[nH]n(-c3ccccc3)c(=O)c12	0.2	-41	-6	4%	-22
CN1C2CCC1CC(OC(=O)c1c[nH]c3ccccc13)C2 (stereo not given)	.	-47	-5	6%	-7&8
CN1C(c2ccccc2)CCOS1(=O)=O (stereo not given)	0.1	.	.	.	2
COc1ccccc1CN1CC(=O)N2CSC[C@H]2C1=O	-3.9	.	.	.	6
CCCOc1ccc(NC(=O)C2CC(=O)N/C(=N/N=C(\C)CCc3ccc4c(c3)OCO4)S2)cc1 (stereo not given)	0.1	-12	13	5%	4
CCCc1cc(=O)oc2cc(OC(C)C(=O)NCc3ccccn3)c(Cl)cc12 (stereo not given)	-2.0	.	.	.	-1
COc1ccc(N2C(=O)CC(N3CC=C(c4ccccc4)CC3)C2=O)cc1 (stereo not given)	0.8	-15	1	-2%	0	Arbovirus inh repeat=8
O=C(NCN1CCc2ccccc2C1)c1ccccc1	.	-17	6	-12%	-12
CCOC(=O)c1cccc(NC(=O)CSc2nnc(COc3ccc(Cl)cc3)o2)c1	0.1	-39	1	-6%	-3
O=C(CCCN1C(=O)c2ccccc2C1=O)Oc1ccc(F)cc1	1.6	0	11	-3%	-5
O=C(COC(=O)c1ccncc1)NCCCc1ccccc1	1.6	.	3	1%	-3
Cc1ccc(-c2nnc3n2N=C(c2ccc(Br)cc2)CS3)cc1	0.1	-48	3	6%	1	Arbovirus inh repeat=-2
Cc1ccc(C)c(NC(=O)CCCCCN2C(=O)[C@@H]3Cc4ccccc4CN3C2=O)c1	-4.3	.	.	.	1
COc1cccc(OCc2nnc(SCC(=O)NCc3ccco3)n2C)c1	-1.7	3	11	-10%	-4
O=C(NCCSCc1ccco1)c1ccc(=O)[nH]c1	-0.7	.	.	.	-9
CC(=O)NC1CCN(C(=O)N2CCCC2)CC1	-1.0	-16	-2	-1%	-1
COc1ccc(CN2CCCC(C(=O)N3CCCC3)C2)cc1 (stereo not given)	-1.5	-53	5	-8%	-11
O=C(Nc1cc2c(cc1Cl)OCCO2)c1ccco1	-1.3	16	-1	-8%	-10
O=C(NC(Cc1ccccc1)C(=O)O)/C(=C\c1ccccc1)NC(=O)c1ccc(Br)o1 (stereo not given)	-3.9	.	.	.	-8
CC(CC1CC(C)(C)OC1=O)C(=O)Nc1ccc([N+](=O)[O-])cc1 (stereo not given)	-0.3	-25	-9	-1%	-8

Screening data from PubChem.
